# PINK1 modulator = modulators of PINK1 expression. PINK1 immunofluorescence, high-content cytometry, 24 h. 410,000 compounds, 0.2% hits. Potency, µM (highest dose often 76.6 µM), without a hit: top-dose activation (PINK1 increase), actives largely listed as activators. AID 624263; active = well fitted activation curve with a large enough effect; inconclusive = small, poorly fitted or top-dose-only effect; inactive = flat fitted curve, though single readings scatter; cell line not stated here;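 also: potency is read from the fitted curve at half-maximal effect; % of control where 0% means no effect; nearly all actives have a fitted effect of over 65% in size; a mitochondrial uncoupler was the plate control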
#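 Measures PINK1 amount and localization on or inside mitochondria by immunofluorescence. Stable cells get compounds at 5 concentrations for 24 hours before fixation and staining; CCCP controls included.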
# TRPV1 potentiator = enhances activation of the human vanilloid receptor TRPV1; Q8NER1; TRPV1-expressing cells, Fluo-8 calcium influx, capsaicin EC20 potentiation; host cell line not named in the record; control for the full effect not named in the record; potentiation, % at 8.33 µM; 320,000 compounds, 0.02% hits; active means potentiation above 80%; inconclusive means 30% to 80%; inactive means below 30%; also: 0% is about no effect
# Target sequence (Q8NER1 whole entry, looked up): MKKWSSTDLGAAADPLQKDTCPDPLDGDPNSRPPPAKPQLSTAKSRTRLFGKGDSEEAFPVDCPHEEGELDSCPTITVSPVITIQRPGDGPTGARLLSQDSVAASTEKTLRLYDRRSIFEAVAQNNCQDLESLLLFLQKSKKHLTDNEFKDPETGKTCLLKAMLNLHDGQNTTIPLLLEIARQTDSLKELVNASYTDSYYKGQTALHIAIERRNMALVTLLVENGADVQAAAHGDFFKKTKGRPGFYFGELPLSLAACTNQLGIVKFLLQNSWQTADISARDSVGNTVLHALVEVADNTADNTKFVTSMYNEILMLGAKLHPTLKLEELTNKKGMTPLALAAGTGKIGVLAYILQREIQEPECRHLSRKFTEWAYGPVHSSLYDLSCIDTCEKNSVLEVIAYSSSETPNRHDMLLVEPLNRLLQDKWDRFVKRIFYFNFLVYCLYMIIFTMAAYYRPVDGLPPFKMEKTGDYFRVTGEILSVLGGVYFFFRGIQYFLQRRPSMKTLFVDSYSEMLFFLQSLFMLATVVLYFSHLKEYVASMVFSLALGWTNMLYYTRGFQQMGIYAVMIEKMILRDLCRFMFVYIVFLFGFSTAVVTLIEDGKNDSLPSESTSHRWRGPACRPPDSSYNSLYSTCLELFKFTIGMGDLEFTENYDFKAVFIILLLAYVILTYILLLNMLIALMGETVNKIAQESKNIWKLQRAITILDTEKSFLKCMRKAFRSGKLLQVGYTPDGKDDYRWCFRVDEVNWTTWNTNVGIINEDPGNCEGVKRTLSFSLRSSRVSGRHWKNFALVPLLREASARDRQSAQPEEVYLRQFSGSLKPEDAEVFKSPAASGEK
#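 Fluo-8 calcium influx in TRPV1-expressing cells, kinetic read (ex 480/em 520 nm). Compound added and read 3 min for agonist activity, followed by capsaicin at EC20 final and 2 min further read for enhancement.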
# TRPML1 agonist = activates the human TRPML1 channel; Q9GZU1; activation, % (no concentration beside the values); 410,000 compounds, 0.12% hits; TRPML1-expressing cells, Ca2+ dye fluorescence, FDSS; host cell line not named in the record; reference of the full effect not given here; in the data active = activation above about 50%; inconclusive = about 30% to 50%; inactive = below about 30%; also: 0% is about no effect; the text of the record puts the active cut at 80%
#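 Cells: TRPML1-DL, 1X Tet inducer, ~16 h at 37 degrees C/5% CO2. Dye: ABD Ca8 no-wash + quencher, 45-90 min RT. Read: 10 s baseline, compound add, 110 s agonist phase; 54-4 EC80 (4uM final), 110 s antagonist phase.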
# ClpP mod = qHTS Assay for Activators of ClpP; ATP-dependent Clp protease proteolytic subunit (Bacillus subtilis (strain 168)), P80244; purified B. subtilis ClpP, FRET peptide cleavage, 20 min; Potency, µM (top dose mostly 57.5 µM), for inactives: at the highest dose activity change, negative = active; 340,000 compounds, 1.9% hits; AID 651965, 2013; active = well fitted falling curve with a large enough effect; inconclusive = small, poorly fitted or top-dose-only effect; inactive = no such curve, though single readings can be large or run the other way; also: potency is read from the fitted curve at half-maximal effect; the source files actives as falling curves though it sought activators and does not explain the sign; nearly all actives have a fitted effect of over 65% in size; many hits overshoot -100%
# Target sequence (P80244 whole entry, looked up): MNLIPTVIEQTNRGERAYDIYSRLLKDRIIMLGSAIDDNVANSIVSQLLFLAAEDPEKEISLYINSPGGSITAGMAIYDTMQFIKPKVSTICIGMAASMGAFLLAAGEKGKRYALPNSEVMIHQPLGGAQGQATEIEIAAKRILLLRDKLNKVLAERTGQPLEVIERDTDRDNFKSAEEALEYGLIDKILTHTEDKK
#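 Buffer: 100 mM Tris/HCl pH8, 100 mM KCl, 0.05% low protease BSA, 2.5% glycerol, 0.01% Tween-20. ClpP 10 microg/mL final; 20 min RT; delta FRET normalized to ADEP and DMSO controls.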
# Sfp PPTase inh = inhibitors of Bacillus subtilis Sfp phosphopantetheinyl transferase; Q9F4F7; Biochemical Sfp PPTase activity, qHTS; Potency, µM, without a hit: max response, negative = inhibition, most hits filed as inhibitors; 310,000 compounds, 3.5% hits; active = well fitted inhibition curve with a large enough effect; inconclusive = small, poorly fitted or top-dose-only effect, or another doubt; inactive = no such curve, though single readings can be large or run the other way;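 also: the enzyme is Sfp with the accession as filed and its product quenches rhodamine fluorescence; potency is read from the fitted curve at half-maximal effect; 0% = enzyme reaction without inhibitor and -100% = no enzyme wells; top concentration of the series not given in the record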
#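 Fluorescence-quenching assay: 15 nM Sfp-PPTase preincubated 15 min at room temperature with compound, then 5 uM rhodamine-CoA and 12.5 uM BHQ-2-labelled YbbR peptide added. Fluorescence (ex 525/em 598 nm) read at start and after 30 min; difference gives rate.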
# TRPML1 blocker = human mucolipin-1 channel inhibition; AID 624415; activity change, negative = inhibition, % (concentration not given with the values); TRPML1-inducible cells, Ca2+ dye fluorescence, FDSS; stronger effect = lower value; inhibition of EC80 agonist-evoked calcium signal; Q9GZU1; 390,000 compounds, 0.02% hits; in the data active means activity change below about -50%; inconclusive means about -30% to -50%; inactive means above about -30%;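 also: stimulus is agonist 54-4 at its EC80 concentration; % is scaled to controls: 0 for no effect and ±100 for the full control effect; the text of the record puts the active cut at -80%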
#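 TRPML1-DL cells, Tet-induced overnight (~16 h, 37 °C) at 1,500 cells/well, were loaded with Ca8 no-wash dye plus quencher for 45-90 min at room temperature. Compounds were pinned during FDSS kinetic reading; agonist 54-4 at EC80 (4 uM final) then added.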
# Menin MLL FP FL = displaces fluorescein MLL peptide from human menin; Fluorescence polarization, fluorescein-MLL peptide displacement from menin; FP activity change, % at 61.4 µM; 290,000 tested, under 10 active; AID 1766; inconclusive = falling polarisation curve, or a change in total fluorescence; inactive = total fluorescence flat and polarisation flat or rising; no compound was filed as active; the % refers to the polarisation; negative = inhibition;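 also: % of control where 0% means no effect; inhibitors lower the polarisation; unlabelled MLL peptide was the positive control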
# * marks the source's active call; other numbers are inactive results; ? = inconclusive; . = not tested or not shown; & = joins results of further samples; [ ] = dose if it differs, or a comment. Random draw from the library, and some 4.4% of all compounds hit somewhere here.
# Values run as follows: Sfp PPTase inh	TRPML1 blocker	ClpP mod	PINK1 modulator	Menin MLL FP FL	TRPML1 agonist	TRPV1 potentiator
COc1ccc(/C=N/Nc2nn3cnnc3c3ccccc23)cc1
→ 8%	11	-2.4%	2.3%	-3.8	-0.3	-7
O=C(NCC1([N+](=O)[O-])CN(C(=O)c2ccccc2)CN(C(=O)c2ccccc2)C1)c1ccccc1
→ 12%	-2	.	0.5%	-0.8	-0.2	11
CCN(CC)C(=O)Cn1c(=O)n(CCCC(=O)NCc2ccc3c(c2)OCO3)c(=O)c2sccc21
→ 16%	4	-2.8%	3.3%	2.0	-1.7	4
COc1ccccc1OCCCCNCCO
→ 21%	3	0.7%	4.1%[38.3 µM]	-0.7	-0.3	21
O=C1Nc2ccc(Br)cc2C1(O)Cc1ccccn1 (centres undefined)
→ -6%	-3	-2.0%	.	-1.3	0.4	2
O=C(Nc1ccc2c(c1)OCCO2)c1ccco1
→ 9%	-12	-0.9%	11µM*	5.1	0.1	2
N#Cc1c(-c2ccc(F)cc2)nc(-c2ccccc2)[nH]c1=O
→ 4%	-2	-3.1%	-0.1%	2.0	-0.8	-5
O=C(NCc1ccc2c(c1)OCO2)c1ccc(N2CCCCCC2)c([N+](=O)[O-])c1
→ 14%	-12	-0.4%	-0.8%	1.2	4.0	3
CNC(=S)N1N=C2c3ccccc3CCC2C1c1ccccc1Cl (centres undefined)
→ 7%	9	.	1.8%	-0.6	0.0	14
Cn1c(C(O)c2ccc(Cl)cc2)nc(Cl)c1Cl (centres undefined)
→ 20%	62	-0.8%	1.9%	1.4	0.2	-8
C=CCOc1ccc(C2C(C(=O)c3cccs3)=C(O)C(=O)N2c2nnc(C)s2)cc1 (centres undefined)
→ .	10	-0.2%	-0.5%	.	?	.
COc1ccc(CC(=O)NCC2CCCN(Cc3cccc(SC)c3)C2)cc1 (centres undefined)
→ 11%	14	.	0.7%	13	0.2	9
CC(=O)c1c(C)[nH]c(C(=O)N2CCN(c3cc(Cl)ccc3C)CC2)c1C
→ 2%	-13	-1.9%	3.2%	-0.7	7.4	-7
CC1CCCCC1NC(=O)C1CCC(CNc2c(N3CCCCC3)c(=O)c2=O)CC1 (centres undefined)
→ 7%	-5	.	1.6%	1.2	0.9	-5
O=C(O)/C=C/C(=O)Nc1ccc(-c2ccccc2)cc1
→ 3%&10%	1	-22%	-1.3%	-2.5&-3.5	-0.1	16&6

# Values run as follows: Sfp PPTase inh	TRPML1 blocker	ClpP mod	PINK1 modulator	Menin MLL FP FL	TRPML1 agonist	TRPV1 potentiator
CCCCC1(CC)SCC(=O)NC1=O (centres undefined)
→ .	11	0.4%	-4.4%	.	0.0	.
CCc1ccc(CSc2nc(-c3ccc(OC)cc3)nc3c2Cc2c(CO)cnc(C)c2O3)cc1
→ .	12	-9.4%	-1.1%	.	0.0	.
C[C@@H](CSc1ccccc1)CN1CC[C@H](C(C)(C)C)CCC1=O
→ 5%	2	0.9%&-4.1%	5.3%	-3.6	0.2&-0.8	-22
CN1CCN(c2nc(-c3ccccc3O)nc3ccccc23)CC1
→ -2%	-21	.	-1.8%	-2.9	0.0	-6
O=C(COC(=O)CNC(=O)c1cccc(F)c1)NCCC1=CCCCC1
→ 12%	-10	0.6%	-1.2%	1.1	1.5	-23
O=S(=O)(c1ccccc1)N1CCC[C@@]2(CCN(C(c3ccccc3)c3ccccc3)C2)C1
→ 20%	.	.	1.8%	-5.6	.	.
O=C(O)C/C(=C\c1cc(Cl)c2c(c1)OCO2)c1nc2ccccc2s1
→ -18%	-2	-21%	3.0%	.	0.7	-10
C[C@@H]1O[C@@H](OC[C@H]2O[C@@H](Oc3c(-c4ccc(O)c(O)c4)oc4cc(O)cc(O)c4c3=O)[C@H](O)[C@@H](O)[C@@H]2O)[C@H](O)[C@H](O)[C@H]1O
→ -10%&-28%	1	1.8%	0.0%	1.7&3.3	-0.2	11
COc1cc(Cn2c(=O)sc3ccccc32)ccc1OCCC(C)C
→ .	-9	-4.7%	-0.1%	.	4.4	.
O=S(=O)(/N=C(/c1ccccc1)N1CCOCC1)c1ccc(F)cc1F
→ .	12	1.0%	1.2%	.	0.1	.
COc1ccccc1-c1nnc(SC(C)C(=O)NCC2CCCO2)n1C (centres undefined)
→ .	9	.	5.2%	.	-0.9	.
O=S(=O)(NCc1ccccc1)c1ccccc1NCCc1ccccc1
→ .	41	?	3.8%	.	0.5	.
COc1cccc(CN2CCC2(C)C(=O)Nc2cccc(NS(C)(=O)=O)c2)c1OC (centres undefined)
→ .	.	0.4%	0.4%	.	-1.0	.
CC(OC(=O)c1ccccn1)C(=O)Nc1nc(-c2ccc(F)c(F)c2)cs1 (centres undefined)
→ .	-16	.	0.0%	.	-0.4	.
CC(C)C[C@H](NC(=O)N1CCN(c2ccccc2)CC1)C(=O)O
→ 17%	-9	0.5%	.	8.6	0.2	4

# Values run as follows: Sfp PPTase inh	TRPML1 blocker	ClpP mod	PINK1 modulator	Menin MLL FP FL	TRPML1 agonist	TRPV1 potentiator
C=CCn1c(SCc2cccnc2)nnc1-c1ccncc1
→ 10%	7	0.7%	-4.5%[38.3 µM]	-2.0	-0.6	0
O=C(CSc1ncccn1)Nn1cnnc1
→ 1%	2	-0.3%	-1.7%[38.3 µM]	-0.9	-0.3	-3
O=C(NCCc1ccccc1Cl)c1cc(COc2ccc(F)cc2F)on1
→ .	57	-2.1%	2.5%	.	3.3	.
CCCCC[C@@H](C)N1C[C@H](COCc2ccccc2)Oc2cc(N3CC[C@H](N(C)C)C3)ccc2S1(=O)=O
→ .	.	-13%	-1.4%	.	0.4	.
O=C(Nc1ccc(Br)cc1F)c1ccc2c(c1)OCCO2
→ 13%	-13	.	7.0%	1.0	3.3	-5
N=c1oc2ccccc2cc1C(=O)Nc1ccccc1
→ 3%	26	.	1.9%	-1.6	-0.1	-7
COC(=O)c1cc(C(=O)NC(C)(C)CC(C)(C)C)cc([N+](=O)[O-])c1
→ 15%	-7	3.7%	0.9%	1.6	3.1	-10
O=C1C2C3C=CC(C4CC34)C2C(=O)N1/N=C/c1ccc([N+](=O)[O-])s1 (centres undefined)
→ 23%	-29	0.5%	6.4%	.	-0.3	-9
C/C(N)=C(/C#N)C(=O)COC(=O)CCS(=O)(=O)c1ccccc1
→ 14%	7	0.7%	0.2%	1.1	1.8	9
CCOC(=O)c1[nH]c(C)c(C(=O)NCCC2=CCCCC2)c1C
→ 13%	-11	-1.3%	5.7%	1.6	0.0	-12
O=C(Nc1ccccc1)Nc1nnc(-c2ccccc2)o1
→ 7%	-18	-21%	-2.8%	-4.2	0.0	?
O=C(Nc1ccc([N+](=O)[O-])cc1Br)c1cccnc1
→ 7%	-2	-1.7%	0.7%	3.8	-0.3	0
O=C(N/N=C/c1ccco1)c1cc(=O)[nH]c2ccccc12
→ 14%	-2	.	-1.7%	-3.8	0.2	14
CC(C)c1nc2oc3c(=O)[nH]cnc3c2c2c1COC(C)(C)C2
→ 13%	.	3.5%	-0.8%	1.2	.	-5
COc1ccc(C(=O)NCc2nnc(SCC(=O)Nc3cc(Cl)ccc3OC)o2)cc1
→ 6%	-1	0.7%	0.5%	-2.6	-1.2	24

# Values run as follows: Sfp PPTase inh	TRPML1 blocker	ClpP mod	PINK1 modulator	Menin MLL FP FL	TRPML1 agonist	TRPV1 potentiator
Cc1c(NC(=O)c2ccccc2)cccc1[N+](=O)[O-]
→ -11%	-12	-0.6%	2.0%	14	-0.1	-9
CN(C)c1ccc(NC(=O)/C=C/c2c(Cl)cccc2Cl)cc1
→ 17%	2	1.9%	?	3.0	0.9	-4
CN1C(=O)CSc2ccc(NC(=O)N3CCc4ccccc43)cc21
→ 18%	2	-0.3%	.	1.9	0.9	-6
COc1cccc2sc(Nc3nnc(-c4ccccc4Cl)o3)nc12
→ -1%	-12	?	7.4%	0.3	15	5
COc1cc(/C=C/c2nc3ccccc3c(=O)[nH]2)cc(Br)c1O
→ -8%	-2	.	2.2%	?	4.8	13
COc1ccc(C2CC(=O)C(C3NCCc4ccccc43)=C(O)C2n2cncn2)cc1 (centres undefined)
→ -11%	-7	.	-0.8%	6.0	0.0	16
COCCSc1ccccc1C(=O)NCc1ccc(S(N)(=O)=O)cc1
→ -9%	-7	-1.5%	-3.8%[38.3 µM]	0.6	0.2	1
O=C(CN1C(=O)NC2(CCCCC2)C1=O)Nc1ccc(F)cc1
→ -1%	-9	0.2%	0.1%	-1.3	-0.5	5
CCN(CC)c1ncnc2c1sc1nc(N3CCOCC3)c3c(c12)CCC3
→ 7%	.	.	.	3.6	.	-19
CCC(C(=O)NCCc1ccc(Cl)cc1)n1nc(C)c2c(C)n(-c3ccccc3)nc2c1=O (centres undefined)
→ .	9	-2.1%	0.0%	.	-0.6	.
CCCc1cc(=O)[nH]c(SCC(=O)Nc2nonc2N)n1
→ 17%	49	0.3%	.	0.0	1.4	3
O=C(O)CCS(=O)(=O)Cc1ccccc1F
→ 3%	-2	-1.0%	14%[38.3 µM]	1.4	-0.2	-5
COc1cc(OC)cc(C(=O)N(CN2CCCC2=O)c2ccccc2OC)c1
→ -1%	-11	-2.1%	.	-0.9	-0.5	-2
O=c1c([N+](=O)[O-])c(O)c2ccccc2n1Cc1ccccc1
→ ?	13	3.3%	0.5%	-3.2	3.5	3
Cc1ccc(SCC(=O)N2CCN(c3ccc(F)cc3)CC2)cc1
→ .	23	.	2.7%	.	-0.9	.
CC(C)=CCSc1nnc(CCNC(=O)OC(C)(C)C)o1
→ -29%	-9	0.4%	-1.1%[38.3 µM]	4.9	0.0	14
O=C(COC(=O)c1ccc(S(=O)(=O)Nc2ccccc2)cc1)NCC1CCCO1 (centres undefined)
→ 22%	11	1.2%	-0.5%	2.9	0.1	-1

# 3 compounds already listed, ordered by formula weight, ascending.
# Values run as follows: Sfp PPTase inh	TRPML1 blocker	ClpP mod	PINK1 modulator	Menin MLL FP FL	TRPML1 agonist	TRPV1 potentiator
CC(C)=CCSc1nnc(CCNC(=O)OC(C)(C)C)o1
→ -29%	-9	0.4%	-1.1%[38.3 µM]	4.9	0.0	14
CN(C)c1ccc(NC(=O)/C=C/c2c(Cl)cccc2Cl)cc1
→ 17%	2	1.9%	?	3.0	0.9	-4
COc1cc(OC)cc(C(=O)N(CN2CCCC2=O)c2ccccc2OC)c1
→ -1%	-11	-2.1%	.	-0.9	-0.5	-2

# Screening results from PubChem.
